Bioassay records from PubChem BioAssay.
SARS PLP yeast – SARS-CoV PLP inhibition in yeast. S. cerevisiae expressing SARS-CoV PLpro, growth rescue; control for the full effect not named in the record. Potency, µM (highest dose often 32.9 µM), inactives show at the top dose activity, positive = growth rescue. 0.19% of 330,000 active. AID 485353; note: 0% is about no effect; nearly all actives have a fitted effect of over 55% in size; growth read by luminescence after 48 h
LASV entry inh – inhibitors of Lassa virus binding or cell entry; Lassa virus pseudotype entry inhibition, cell reporter; control for the full effect not named in the record; Potency, µM (titrated, usually from 37.9 µM), for the others: at the top dose activity change, negative = inhibition, most hits filed as inhibitors; 1.2% of 300,000 active; AID 540256; active means well fitted inhibition curve with a large enough effect; inconclusive means small, poorly fitted or top-dose-only effect, or effect the other way; inactive means flat fitted curve, though single readings scatter; tested in HEK293 cells; note: % is set by controls: 0 for no effect and ±100 for the full control effect; nearly all actives have a fitted effect of over 50% in size; luciferase read-out
Cruzain noTriton – cruzain (T. cruzi) inhibition without detergent; purified cruzain, Z-FR-AMC fluorescence, no detergent; Potency, µM, without a hit: max response, negative = inhibition, most hits filed as inhibitors; 2.3% of 200,000 active; AID 1476; active = well fitted curve in the direction sought with a large enough effect; inconclusive = small, poorly fitted or top-dose-only effect, or another doubt; inactive = no such curve, though single readings can be large; an effect the other way counts as inactive or inconclusive;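 note: plate controls were enzyme without inhibitor for no effect and buffer without enzyme for full effect; nearly all actives have a fitted effect of over 40% in size; top concentration of the series not given in the record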
Target sequence (P25779 123-467 limits assumed): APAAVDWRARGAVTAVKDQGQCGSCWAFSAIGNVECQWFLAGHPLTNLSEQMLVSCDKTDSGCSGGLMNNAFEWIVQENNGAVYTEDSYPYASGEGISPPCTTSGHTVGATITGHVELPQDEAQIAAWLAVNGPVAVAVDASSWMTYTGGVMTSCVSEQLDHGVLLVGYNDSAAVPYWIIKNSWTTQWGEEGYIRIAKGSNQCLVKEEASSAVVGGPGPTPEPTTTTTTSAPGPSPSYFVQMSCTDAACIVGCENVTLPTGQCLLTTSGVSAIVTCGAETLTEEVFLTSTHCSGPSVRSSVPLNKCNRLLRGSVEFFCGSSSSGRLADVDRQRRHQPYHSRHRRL
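Detergent-free condition (0.00005% Triton X-100) in acetate buffer pH 5.5 with DTT. 1.5 nM enzyme and compound were pre-mixed 15 min, then 2 uM Z-FR-AMC substrate added; reaction progress from fluorescence change between first and third reads (60 s).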
StopGo reporter – lowers the luciferase signal of an FMDV 2A StopGo reporter | human cells with a luciferase reporter of 2A StopGo recoding; control for the full effect not named in the record | Potency, µM (top dose mostly 57.9 µM), without a hit: top-dose signal change, negative = less light | 1.2% of 410,000 active | AID 1159524; active = well fitted falling curve with a large enough effect; inconclusive = small, poorly fitted or top-dose-only effect; inactive = no such curve, though single readings can be large or run the other way; tested in HEK293T cells; note: % is set by controls: 0 for no effect and ±100 for the full control effect; nearly all actives have a fitted effect of over 45% in size; luciferase light after 4 h
MARV entry inh – blocks Marburg virus binding to or entry into cells. Potency, µM (series often up to 37.8 µM), for the others: at the highest dose activity change, negative = inhibition, most hits filed as inhibitors. AID 540276. 1.8% of 300,000 active. Marburg virus pseudotyped entry inhibition, cell reporter; control for the full effect not named in the record; about a third of the inactives were read at about 46 µM; active = well fitted inhibition curve with a large enough effect; inconclusive = small, poorly fitted or top-dose-only effect, or effect the other way; inactive = flat fitted curve, though single readings scatter; tested in HEK293 cells; about a fifth of its hits are not listed in these tables; note: % is set by controls: 0 for no effect and ±100 for the full control effect; luciferase read-out
NS1 inh – inhibitors of influenza NS1 protein function; S. cerevisiae slowed by influenza A NS1, growth recovery by OD600; Potency, µM (top dose mostly 46.1 µM), for the others: at the highest dose activity, positive = more growth; 0.4% of 270,000 active; AID 2326; note: actives are rising curves; nearly all actives have a fitted effect of over 50% in size
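Recovery from NS1-induced slow growth read by OD600 in budding yeast switched to galactose assay medium (pH 6.0, -URA) at 1:100 dilution. Compound 23 nl per well; the matching strain lacking NS1 serves as control.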
RE007 growth inh – less growth of the S. pombe RE007 Vpr strain | S. pombe RE007 Vpr strain, BacTiter-Glo ATP luminescence, 24 h; control for the full effect not named in the record | 0.21% of 360,000 active | Potency, µM (titrated, usually from 92.2 µM), without a hit: top-dose activity change, negative = less growth; active = well fitted falling curve with a large enough effect; inconclusive = small, poorly fitted or top-dose-only effect; inactive = no such curve, though single readings can be large or run the other way;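 note: % is set by controls: 0 for no effect and ±100 for the full control effect; nearly all actives have a fitted effect of over 50% in size; the assay follows cell death caused by Vpr and the record does not say whether a fall means rescue or toxicity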
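Fission yeast RE007 carrying one integrated HIV-1 vpr copy, seeded at OD 0.01 in PMG+AL medium with 23 nL pinned compound. Grown 24 h at 30 degrees; viability read by BacTiter-Glo luminescence after 5 min.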
Cruzain inh Det – blocks cruzain activity in presence of Triton detergent. Potency, µM, inactives show max response, negative = inhibition, most hits filed as inhibitors. P25779. purified cruzain, Z-FR-AMC fluorescence, 0.01% Triton. 0.43% of 200,000 active. AID 1478; active = well fitted curve in the direction sought with a large enough effect; inconclusive = small, poorly fitted or top-dose-only effect, or another doubt; inactive = no such curve, though single readings can be large; an effect the other way counts as inactive or inconclusive;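 note: plate controls were neutral wells for no effect and buffer without enzyme for full effect; nearly all actives have a fitted effect of over 40% in size; top concentration of the series not given in the record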
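Detergent-containing arm of a paired screen for aggregation-based inhibition: 0.01% Triton X-100 present. Cruzain at 1.5 nM cleaved 2 uM Z-FR-AMC at pH 5.5 with 5 mM DTT; AMC fluorescence gain over 60 s measured activity.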
The depositor's hits bear a star; ? = inconclusive; · = no result given; & = joins results of further samples; [ ] = remark or other dose. Unless noted, calls come from the whole dose curve; as a rule, active means well fitted rising curve with a large enough effect; inconclusive means small, poorly fitted or top-dose-only effect; inactive means no such curve, though single readings can be large or run the other way. Potency is the fitted concentration of half-maximal effect. An unsorted share of the library; about 4.5% have a hit in one of these screens.

SMILES	SARS PLP yeast	LASV entry inh	Cruzain noTriton	StopGo reporter	MARV entry inh	NS1 inh	RE007 growth inh	Cruzain inh Det
CSc1ccccc1NC(=O)c1ccccc1C	-0.1%	·	·	-13.3%	·	-1.3%	-20.5%	·
COC(=O)CNC(=O)C12CC3(C)CC(C)(CC(C)(C3)C1)C2	0.1%	0.1%	11.2%	-14.5%	?	2.8%	8.0%	2.1%
Cc1cccc(CCNS(=O)(=O)c2cnc[nH]2)c1	-2.1%	3.3%	1.2%	-2.6%	?	8.0%	-12.2%	4.4%
CC(C)c1onc(C(=O)N2CCN(c3ccc(F)cc3)CC2)c1[N+](=O)[O-]	-3.1%	·	·	-19.3%	·	-25.6%	12.8%	·
CC(=O)Nc1ccc2c(c1)CCCN2C(=O)c1ccccc1	-9.2%	3.6%	1.1%	-1.6%	24.8%	-3.5%	3.6%	2.7%
C#CCOc1ccc2c3c(c(=O)oc2c1)CCCC3	-5.9%	-0.5%[46.1 µM]	·	-16.4%	7.3%[46.1 µM]	-40.3%	?	·
CCC(C)[C@@H](NC(=O)OC(C)(C)C)c1nnc(S(=O)(=O)Cc2cccc(C)c2)o1 (some centres not stated)	-13.0%	?	7.94µM*	31.6µM*	?	-65.8%	-20.6%	3.16µM*
CCN(CCCNC(=O)c1ccc(Sc2ccc(Cl)cc2)c(NC(C)=O)c1)c1cccc(C)c1	·	10.7%[46.1 µM]	11.9%	-16.8%	·	·	·	0.6%
COc1ccccc1-c1cc(C(=O)NCc2ccc(F)cc2)no1	-29.9%	22.8%[14.3 µM]	-3.4%	41.8%[activator]	7.1%	-30.8%	-4.7%	-6.1%
CNC(=S)N/N=C/c1ccc(N(C)C)cc1	0.5%	1.4%	·	51.6%[activator]	-26.0%	-4.7%	9.9%	·
CCOC(=O)c1ccccc1NC(=O)CSc1nc2ccccc2n1CC(=O)N1CCCC1	1.5%	0.2%	18.0%	-6.0%	0.8%&10.1%	-2.0%	14.4%	-4.0%
Cc1ccc2c(c1)OC(c1ccc3c(c1)OCCO3)CC2=O (configuration not stated)	1.1%	·	·	39.7%[activator]	·	-12.9%	30.5%	·
CCOC(=O)c1cccc(NC(=O)COC)c1	0.1%	-1.5%	0.3%	8.4%	?	-4.8%	9.0%	1.9%
Cc1cc(C)cc(Nc2nc3ccc(C)cc3n3cnnc23)c1	0.2%	?	·	-9.1%	?	1.2%	6.5%	·
CCCS(=O)(=O)c1ccc(COC(=O)c2cccc(NC(=O)C(C)C)c2)cc1	-0.3%	?	·	?	?	-1.8%	21.2%	·
COc1cccc(C2c3[nH]c4ccccc4c3CCN2Cc2cnc(C)s2)c1OC (configuration not stated)	0.0%	?	·	-23.4%	-25.4%[46.1 µM]	1.1%	-14.0%	·
Cc1c(N/N=C(\C#N)C(=O)c2ccc(Cl)cc2)c(=O)n(-c2ccccc2)n1C	12.6µM*	?	20.3%	-2.1%	4.11µM*	?	1.1%	-21.8%
CC(C)(C)c1ccc(S(=O)(=O)N(CCCN2CCOCC2)Cc2cccs2)cc1	-20.8%	?	27.1%	-14.6%&0.0%	?	-35.7%	-21.6%&14.8%	1.9%
CC1(C(=O)OCC(=O)NC(=O)c2ccccc2)CC1(Cl)Cl (configuration not stated)	-2.6%	18.2%	·	13.2%	-18.8%[46.1 µM]	·	-15.6%	·
COc1ccc(C2(CNC(=O)c3cccc([N+](=O)[O-])c3)CCCCC2)cc1OC	3.6%	0.2%	-13.7%	-17.5%	?	-27.3%	-4.1%	-6.8%
CC1=C(C(=O)OCCNC(=O)c2cccnc2)C(c2cccc([N+](=O)[O-])c2)C(C(=O)OCCN(C)C)=C(C)N1 (configuration not stated)	9.6%	14.0%	-3.9%	-22.0%	-9.3%	6.9%	19.0%	-4.1%
CC(=O)C1=C(O)C(=O)N(CCc2c[nH]c3ccccc23)C1c1ccc(C)cc1 (configuration not stated)	0.1%	·	·	8.6%	·	2.9%	-11.6%	·
CCC1=NN(C(=O)c2ccc(Br)cc2)C(O)(c2ccccc2)C1 (configuration not stated)	-16.4%	-1.0%	1.4%	2.7%	-10.6%	-12.9%	-14.9%	-4.4%
Cc1nc2ccc(NC(=O)c3c(-c4ccccc4)noc3C)cc2s1	-3.9%	-11.0%	15.9%	?	?	-13.1%	11.8%	-7.1%
Cn1c(O)c(C(c2ccccn2)c2c(O)n(C)c(=S)n(C)c2=O)c(=O)n(C)c1=S	-0.5%	-16.4%	0.2%	8.8%	-0.5%	2.3%	8.3%	2.6%

Brought forward from above: five entries; new compounds follow.
SMILES	SARS PLP yeast	LASV entry inh	Cruzain noTriton	StopGo reporter	MARV entry inh	NS1 inh	RE007 growth inh	Cruzain inh Det
CC1=C(C(=O)OCCNC(=O)c2cccnc2)C(c2cccc([N+](=O)[O-])c2)C(C(=O)OCCN(C)C)=C(C)N1 (configuration not stated)	9.6%	14.0%	-3.9%	-22.0%	-9.3%	6.9%	19.0%	-4.1%
CC(=O)C1=C(O)C(=O)N(CCc2c[nH]c3ccccc23)C1c1ccc(C)cc1 (configuration not stated)	0.1%	·	·	8.6%	·	2.9%	-11.6%	·
CCC1=NN(C(=O)c2ccc(Br)cc2)C(O)(c2ccccc2)C1 (configuration not stated)	-16.4%	-1.0%	1.4%	2.7%	-10.6%	-12.9%	-14.9%	-4.4%
Cc1nc2ccc(NC(=O)c3c(-c4ccccc4)noc3C)cc2s1	-3.9%	-11.0%	15.9%	?	?	-13.1%	11.8%	-7.1%
Cn1c(O)c(C(c2ccccn2)c2c(O)n(C)c(=S)n(C)c2=O)c(=O)n(C)c1=S	-0.5%	-16.4%	0.2%	8.8%	-0.5%	2.3%	8.3%	2.6%
CCc1ccc(CNC(=O)CN2CCSc3ccccc32)cc1	·	6.5%[46.1 µM]	1.2%	16.4%	·	·	·	-8.4%
COc1ccc(Cl)cc1NC(=O)CSc1nc(-c2cccs2)cc(C(F)(F)F)n1	·	-14.0%[46.1 µM]	-6.3%	-22.7%	5.9%[46.1 µM]	·	·	-4.1%
COc1cccc2c1cc1c(=O)n(CC(=O)N3CCN(c4cccc(C(F)(F)F)c4)CC3)nc(C)n12	·	·	-3.6%	-6.6%	?	·	·	-0.7%
CCN(C1CCCCC1)S(=O)(=O)c1cc(C)ccc1OC	-10.1%	?	-11.6%	-6.6%	-20.6%	-2.3%	-8.0%	-6.4%
C/C(N)=C(/C#N)C(=O)COC(=O)c1ccccc1C(=O)c1ccc(C)cc1	-1.8%	-10.0%	·	12.1%	5.8%[46.1 µM]	·	11.4%	·
N#C/C(=C/c1ccc(Sc2nc3ccccc3[nH]2)o1)c1ccccc1F	-13.6%	-17.1%	?	?	-5.7%	-58.0%	-7.8%	-4.4%
C=C(C)Cn1c(SCC(=O)O)nnc1-c1ccc(OC)cc1	0.0%	6.8%	-8.5%	-13.2%	1.8%	-0.7%	5.0%	5.3%
Cc1cccc(C)c1Nc1ncnc2ccccc12	1.1%	·	·	-0.2%	·	3.6%	-1.1%	·
N#CC1=C(N)Oc2cc3ccccc3cc2C1c1cccnc1 (configuration not stated)	13.8%	?	3.5%	-15.3%	?	-8.1%	-14.0%	-5.4%
Cc1nc2sc(C(c3cccs3)N3CCN(C(=O)c4ccco4)CC3)c(O)n2n1 (configuration not stated)	-3.2%	·	-5.2%	2.3%	·	-34.2%	11.7%	-2.4%
O=C(c1ccc2c(c1)C(=O)N(Cc1ccco1)C2O)N1CCOCC1 (configuration not stated)	2.4%	·	-2.3%	-9.5%	·	3.5%	2.0%	8.3%
COc1cccc(CNC(=O)CCCC(=O)Nc2cccc([N+](=O)[O-])c2)c1	1.8%	·	·	-10.9%	·	3.0%	-15.2%	·
COc1ccc2c(C(F)(F)F)cc(=O)oc2c1C	-13.0%	1.5%	-22.3%	1.3%	-2.4%	4.1%	7.0%	-4.2%
CC(C)Oc1cccc(C(=O)NC(=S)Nc2ccccc2)c1	-32.8%	?	-1.1%	30.2%[activator]	-38.8%	-5.4%	-23.3%	-8.7%
COC(=O)CSc1nc(C2CC2)nc2ccccc12	-5.0%	-17.9%	-5.1%	-19.0%	0.3%	-98.4%	1.6%	-3.3%
CSCCC(NC(=O)c1ccc(C(C)(C)C)cc1)C(=O)O (configuration not stated)	4.8%	?	·	16.1%	0.3%[46.1 µM]	1.8%	-9.6%	·
COC(=O)CSc1nc(C)c(C)c(C)c1C(N)=O	-0.4%	-2.4%	·	-7.2%	20.5%[46.1 µM]	-3.0%	6.0%	·
O=C(C1CCC1)N1CCN(c2ccc(Cl)cc2)CC1	-8.0%	26.4%	·	-7.9%	13.2%	-16.6%	-9.9%	·
Cc1ccc(CSCCNC(=O)c2ccc(Cl)c(S(=O)(=O)N3CCOCC3)c2)cc1	-8.1%	?	20.6%	?	-27.1%	9.9%	2.4%	-5.1%
O=C(c1ccc2c(Cl)c3c(nc2c1)CCCC3)N1CCN(c2ccccc2F)CC1	·	-11.1%[46.1 µM]	-2.2%	-8.4%	0.7%[46.1 µM]	·	·	2.9%
CN(C)c1ccc(C(=O)c2ccc(O)cc2O)cc1	-34.3%	-18.1%	3.4%	3.1%	9.9%	24.5%	-29.0%	-15.0%
CCc1nc2nc(C)c(NS(=O)(=O)c3ccc4c(c3)CCCC4)c(=O)n2[nH]1	0.8%	-1.0%	·	-6.4%	19.5%[46.1 µM]	13.7%	-2.9%	·
O=C(Nc1ccc(Oc2ccccc2)nc1)C1CCN(Cc2ccco2)CC1	0.0%	2.2%	·	0.0%	?	7.3%	1.2%	·
Cn1c(SCc2ccc(Br)cc2)nc2ccccc2c1=O	2.1%	-19.7%	·	?	-19.9%	3.1%	30.6%	·
CCC(C)c1ccccc1NC(=O)COC(=O)CCc1cc(OC)c(OC)c(OC)c1 (configuration not stated)	-1.3%	21.6%	-1.8%	-16.1%	6.7%	-3.0%	-0.3%	1.0%
Cc1cccc(C(=O)Nc2nnc(S(=O)(=O)N3c4ccccc4CC3C)s2)c1 (configuration not stated)	·	-3.4%[46.1 µM]	7.7%	-22.1%	·	·	·	-5.5%
